# Mtb betalactam – beta-lactam sensitization of Mtb H37Rv. M. tuberculosis H37Rv growth with meropenem, percent inhibition; hits of this screen are not shown here. inhibition, % at 25 µM. 0.27% of 330,000 active. AID 434955;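 active = about 74% or more and at least 40 points above the plate without the antibiotic, then above 30% in a dose series; inconclusive = first-round hits that could not be retested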;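 also: growth measured after seven days incubation then overnight dye step; 0% = bacteria only wells and 100% = bacteria with antibiotic; twin plates without the antibiotic show which effects depend on it; some results filed as inactive read as strong as hits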
# RecA splice inh – inhibitors of M. tuberculosis RecA intein splicing; 0.75% of 290,000 active; inhibition, %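 (about 9 µM by stock and volumes)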; cell-free RecA intein splicing, fluorescence; P9WHJ3; AID 2221; in the data active = inhibition above about 30%; inconclusive = no clear call, values can overlap the other calls;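 also: 0% = vehicle wells and 100% = reference inhibitor control wells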
# Target sequence (P9WHJ3 whole entry, looked up, canonical isoform): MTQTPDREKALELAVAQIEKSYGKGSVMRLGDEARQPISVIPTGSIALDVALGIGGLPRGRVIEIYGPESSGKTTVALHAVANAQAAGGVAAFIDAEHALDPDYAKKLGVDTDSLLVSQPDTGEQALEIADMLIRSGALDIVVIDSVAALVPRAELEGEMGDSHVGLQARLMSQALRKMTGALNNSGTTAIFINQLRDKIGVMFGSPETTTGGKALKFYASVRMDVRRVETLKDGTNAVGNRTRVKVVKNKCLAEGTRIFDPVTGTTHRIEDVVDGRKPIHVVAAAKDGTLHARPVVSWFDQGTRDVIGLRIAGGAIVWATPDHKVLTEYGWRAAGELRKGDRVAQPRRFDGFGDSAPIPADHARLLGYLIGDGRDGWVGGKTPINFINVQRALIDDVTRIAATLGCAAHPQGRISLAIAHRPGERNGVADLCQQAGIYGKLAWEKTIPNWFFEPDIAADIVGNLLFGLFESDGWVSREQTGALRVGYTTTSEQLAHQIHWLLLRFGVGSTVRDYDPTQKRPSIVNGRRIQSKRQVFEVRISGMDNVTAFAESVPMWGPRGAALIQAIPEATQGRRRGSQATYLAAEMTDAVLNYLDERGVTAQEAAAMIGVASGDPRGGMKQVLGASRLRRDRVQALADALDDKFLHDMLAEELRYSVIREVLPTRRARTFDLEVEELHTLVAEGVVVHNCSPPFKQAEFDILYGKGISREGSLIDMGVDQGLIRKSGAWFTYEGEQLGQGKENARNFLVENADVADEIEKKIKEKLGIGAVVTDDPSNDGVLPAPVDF
# Arbovirus inh – arbovirus infection inhibition. arbovirus infection cell-based antiviral screen. 0.37% of 200,000 active. inhibition, % at 10 µM. AID 1251;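 active = inhibition from about 30%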;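 also: bluetongue infection of BSR cells; cell survival read as ATP light after 72 h; 0% = infected wells without compound and 100% = uninfected wells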
# YopH inh – inhibitors of Yersinia enterocolitica YopH tyrosine phosphatase; inhibition, %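 (about 10 µM by stock and volumes)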; 0.16% of 140,000 active; fluorescence Ex485/Em525;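 active = inhibition of 50% or more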;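 also: controls were vehicle for no effect and minimum signal wells for full effect; inactives centre near -20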
# Mtb growth – M. tuberculosis H37Rv growth inhibitors, H37Rv strain (AID 1626); one-dose inhibition, % at 10 µM; IC50 in µM for titrated hits; 0.95% of 220,000 active; M. tuberculosis H37Rv growth inhibition; higher % means a stronger effect;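 active = confirmed in a dose series; inconclusive = inhibition above 80% but not taken into the dose series; inactive = below 80% or under 30% at every dose of the series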;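 also: bacteria incubated seven days before Alamar blue readout; 0% = bacteria only wells and 100% = bacteria with antibiotic wells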
# Arbovirus inh repeat – further read-out of Arbovirus inh, marked with its call; inhibition, %; measured here: 10K subset replicate screen; many hits read low in the repeat;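 first of two repeat runs on a subset; 0% = infected and 100% = uninfected wells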
# An asterisk follows results filed as active; ? = inconclusive; . = not tested or not shown. Only part of the results is shown; rates above refer to the full screens.
SMILES,Mtb betalactam,RecA splice inh,Arbovirus inh,YopH inh,Mtb growth,others
C=CCn1c(SCC(=O)NNC(=O)Nc2cccc(Cl)c2)nnc1-c1ccccc1,-10,2.9,.,.,3%,
O=C(c1cccs1)n1nc(-c2ccco2)nc1SCc1ccccc1,-10,2.1,5,-5,-2%,
COc1cccc(NC(=O)NC2CCCc3ccccc32)c1 (stereo not drawn),-11,0.3,-5,.,0%,
CCOC(=O)C1CCCN(S(=O)(=O)c2ccc3c(c2)N(C(C)=O)CCO3)C1 (stereo not drawn),-1,-0.6,.,.,.,
CCn1c(CSc2nnc(-c3ccoc3C)n2C)nc2cc(S(=O)(=O)N(C)C)ccc21,5,-4.9,2,-45,3%,
O=C(NC1CC1)c1cccc(S(=O)(=O)Nc2ccccc2F)c1,-9,-1.1,.,.,.,
COCC(=O)Nc1nc(-c2ccccc2)ns1,3,-1.5,-2,26,4%,
CCOC(=O)c1sc(=NC(=O)c2cc(OC)c(OC)c(OC)c2)n(C)c1C,1,0.4,-5,-23,-8%,
C/C(=N\NC(=O)c1nn(C)cc1Cl)c1ccncc1,-3,-3.0,-2,-13,2%,
CC(=O)N1CCN(CC(=O)Nc2ccccc2Sc2ccc(Cl)cc2)CC1,8,3.3,0,-23,0%,
Cc1ccc(NC(=O)c2ccc(F)cc2)cc1S(=O)(=O)N1CCCCCC1,-4,5.2,2,.,9%,
Fc1ccc2[nH]c3c(N4CCN(c5ccccc5)CC4)ncnc3c2c1,29,-1.3,4,-38,69%,
COc1cc(CC(=O)OCC(=O)Nc2ccc(N3CCOCC3)cc2)cc(OC)c1OC,-10,-0.2,0,.,-6%,
C=CCNc1nc(-c2ccccn2)nnc1-c1ccccc1,87,12,-26,-8,37%,
CCC1Oc2ccc(C)cc2N(CC(=O)NCCC2=CCCCC2)C1=O (stereo not drawn),-14,0.3,-5,-20,-2%,
O=C(NCc1cccs1)C1CCCN(c2nc3ccccc3o2)C1 (stereo not drawn),-4,0.0,-15,-7,-2%,
Cc1nc(NC(=O)COC(=O)CCc2nc3ccccc3s2)c(Cl)cc1Cl,0,0.5,1,-12,-23%,
O=C(Nc1ccc(N2CCN(C(=O)c3ccc(Cl)cc3)CC2)cc1)c1cccs1,-4,-0.5,.,.,.,
O=C(NNc1ccc(-c2csnn2)cc1)c1ccccc1C(F)(F)F,94,-2.9,.,.,45%,
CC1(C)CC(=O)C=C(Nc2ccccc2O)C1,2,-0.1,3,-48,-10%,
O=[N+]([O-])c1ccc(S(=O)(=O)N2CCN(Cc3c[nH]c4ccccc34)CC2)cc1,7,-0.6,1,-11,-6%,
Cc1nc(S(=O)(=O)N2CCOCC2)c(C#N)c(C)c1Cl,-10,0.7,20,-23,8%,
NC(=O)c1ccsc1NC(=O)CSc1nc2ccccc2c(=O)n1CCCO,-1,2.1,5,-43,4%,
O=S(=O)(c1ccc(Oc2ccc(S(=O)(=O)N3CCOCC3)cc2)cc1)N1CCOCC1,3,-1.3,3,-6,-4%,Arbovirus inh repeat=-5
CC(=O)Nc1ccc(CN2CCCCCCC2)cc1,-3,-2.1,0,-53,5%,
Cn1ncc(C(=O)Nc2ccc(OC(F)(F)F)cc2)c1-n1cccc1,1,-1.3,.,.,4%,
Cc1cc(C(F)(F)F)c(C#N)c(SCC(=O)NC(C)(C)C)n1,0,1.0,7,-8,4%,
Nc1nc2ncc(-c3ccsc3)c(N)n2n1,3,-5.8,1,.,8%,
O=C(CCN1C(=O)C2C3CCC(C3)C2C1=O)Nc1ccccc1C(F)(F)F (stereo not drawn),-7,-0.8,-1,.,7%,
CCOC(=O)C1=C(C)NC(C)=C(C(=O)OCC)C1C(=O)OCC(=O)N(CC)C1CCS(=O)(=O)C1 (stereo not drawn),-4,-2.0,-1,.,-1%,
COc1cccc(CN2CCNC(=O)C2CC(=O)N2CCCCO2)c1OC (stereo not drawn),1,3.5,-2,.,-18%,
Clc1ccc(SCc2cc(Cl)nc(-c3ccccc3)n2)cc1,9,5.6,.,-9,2%,
O=C(c1ccccc1Cl)N1N=C(c2ccc(Br)cc2)CC1c1nc2ccccc2[nH]1 (stereo not drawn),14,-2.3,-26,5,-7%,
COC(=O)c1sc(-c2ccc(Cl)cc2)cc1NC(=O)CSCC(=O)O,-3,-2.3,.,.,7%,
COc1cc(O)c(C(CCN2CCCC2)c2ccc(N(C)C)cc2)c(OC)c1 (stereo not drawn),-7,0.2,.,.,-5%,
O=C(CSc1nc2[nH]ncc2c(=O)[nH]1)N1CCCC1,-7,2.5,-1,-33,-4%,
CCCNC(=O)NNC(=O)c1ccc(F)cc1,-5,0.6,4,.,1%,
COC(=O)c1c2c(nc3ccccc13)CCC2,-6,.,-1,-25,-4%,
NC(=O)c1ccc(NC(=O)COC(=O)c2cc(S(=O)(=O)N3CCOCC3)ccc2N2CCCCC2)cc1,-2,-0.6,.,.,-13%,
O=C(c1ccc(Cl)c(S(=O)(=O)N2CCCC2)c1)N1CCN(c2ccc(F)cc2)CC1,-6,2.8,4,.,4%,
CSc1sc(C)cc1/C=N/O,-2,6.4,2,-25,2%,
CCOc1ccc(-c2nc(C#N)c(NC3CC3)o2)cc1,-6,2.1,4,-18,-1%,
CC(C)(C)N=C1SCC(C)(/C=N/O)S1 (stereo not drawn),0,1.4,3,-14,-2%,
CCCNc1ccc(C(=O)OCC)cc1[N+](=O)[O-],-1,3.6,1,.,-3%,
Cc1ccc2[nH]c(C(=O)N3CCC(C(N)=O)CC3)cc2c1,0,-2.7,.,.,.,
COc1ccc(-n2ncc3c(SCC(=O)NNC(C)=O)ncnc32)cc1,2,-2.6,.,.,.,
O=C(COc1ccccc1)NC1CCSc2ccccc21 (stereo not drawn),-4,15,.,.,.,
O=C(NNc1ccccc1Br)C(O)(c1cccc(C(F)(F)F)c1)c1cccc(C(F)(F)F)c1,6,-1.1,-30,-36,7%,
CC(C)(C)NC(=O)CN(Cc1cccs1)C(=O)c1csnn1,-1,-3.4,-2,-22,-9%,
O=C(N/N=C/c1sc(=O)n(Cc2ccc(Br)cc2)c1Cl)c1ccco1,5,1.7,.,.,.,
Cc1cc(=O)[nH]c(NCCO)n1,-9,-1.5,4,.,3%,
COc1ccccc1C(=O)Nc1nnc(-c2ccco2)s1,18,-0.4,15,-6,-1%,
Cc1ccnc(NC(=O)c2cccc(S(=O)(=O)N3CCCC3)c2)c1,-1,0.0,.,.,.,
COc1ccc(C(=O)c2ccc(OC)c(Br)c2)cc1Br,0,-5.8,-11,0,6%,
O=C(O)Cn1cc(/C=C2\C(=O)NC(=O)N(c3ccc(Cl)cc3)C2=O)c2ccccc21,4,0.9,.,.,.,
O=C(NC1CCN(Cc2ccccc2)CC1)C12CC3CC(CC(C3)C1)C2,11,-1.6,-6,9,-7%,
CC(Nc1cc(=O)n(C)c(=O)[nH]1)c1ccccc1 (stereo not drawn),73,3.4,1,-22,6%,
N#Cc1c(SC(C(=O)O)c2ccccc2)nc2c(c1-c1cccs1)CCCC2 (stereo not drawn),-7,13,.,.,-3%,
CCOc1ccc(NC(=O)/C(C#N)=C/c2ccc(N3CCCC3)c(C)c2)cc1,-4,.,-13,-19,7%,
Cc1ccc(C)c(NS(=O)(=O)c2c(C)ccc3nsnc23)c1,3,-0.7,-8,-37,1%,

# Further entries:
SMILES,Mtb betalactam,RecA splice inh,Arbovirus inh,YopH inh,Mtb growth,others
O=C(CC(=O)c1cc(Cl)ccc1O)c1ccccc1,100,7.6,0,-5,?,
CCN1CC(CN(C)Cc2cn(-c3ccc(C)cc3)nc2-c2cccc(C)c2)CC1=O (stereo not drawn),-2,1.9,-4,.,13%,
Cc1ccc(Cn2c(NCCc3ccccc3)nc3c2c(=O)n(C)c(=O)n3C)cc1,-3,-0.2,9,-12,8%,
c1ccc2c(N3CCCCC3)nc(N3CCCC3)nc2c1,-3,7.1,-10,19,-8%,
CCC(=O)N(CC(=O)Nc1sc(C)c(C)c1C(N)=O)C1CCCCC1,5,-0.4,-2,-23,1%,
COC(=O)C1CN(C(=O)COc2ccc(C)cc2)c2ccccc2O1 (stereo not drawn),9,-1.7,.,.,.,
CC(C)C1CC(CCNCc2ccc(N(C)C)cc2)(c2ccccc2)CCO1 (stereo not drawn),.,-1.1,14,-11,4%,
CCCC(c1nnnn1Cc1ccc2c(c1)OCO2)N1CCC(C(N)=O)CC1 (stereo not drawn),-4,3.7,4,.,-3%,
Cc1cc(C(F)(F)F)cc(NNC(=O)NC(=O)c2c(F)cccc2Cl)n1,-1,-0.7,.,.,-2%,
Cc1cccc(Nc2ncnc3c2cnn3C)c1,-2,-1.8,-15,.,-11%,
Cc1ccc(OCC(=O)NCCC2=CCCCC2)cc1,0,-4.6,0,-33,3%,
COc1cccc(N(CC(=O)NC(C)(C)C)C(=O)C2CSC(=O)C2)c1 (stereo not drawn),-14,1.1,4,-36,-6%,
CC1(C)CC(=O)/C(=C(/O)Cc2ccccc2)C(=NCCc2ccccc2)C1,3,8.4,5,-27,9%,
CC(C)N1CC2=C(C1=O)C(c1ccc(O)cc1)NC(=O)N2C (stereo not drawn),1,0.3,7,.,5%,
Cc1ccc(S(=O)(=O)c2c(C)cc(C)nc2N2CCCC2)cc1,0,7.2,-3,.,12%,
Cc1ccccc1NC(=O)C1c2cccc[n+]2CC(=O)N1c1c(C)cccc1C (stereo not drawn),-7,2.1,-1,3,-6%,
CCCCn1c2c(c(=O)n(C)c1=O)C(CC(=O)OCC(=O)Nc1cccc(C(F)(F)F)c1)C(=O)N2 (stereo not drawn),7,1.4,21,-37,-3%,
COC(=O)CSc1nc(NC(C)(C)C)nc(N(C)C)n1,42,0.5,5,.,13%,
COC(=O)Cc1[nH]nc2c1C(c1cccc(OC)c1OC)C(C#N)=C(N)O2 (stereo not drawn),-8,.,0,-45,-11%,
COc1ccc(C)cc1NC(=O)CN1CCN(c2ccc(F)cc2)CC1,87,7.9,12,-40,11%,
CC1=C(C(=O)OCc2ccccc2)C(c2ccco2)C2=C(CC(C)(C)CC2=O)N1 (stereo not drawn),4,14,-5,-24,2%,Arbovirus inh repeat=-10
COc1c(Br)cc(Br)cc1/C=N/NC(=O)c1cccnc1,4,0.6,.,.,.,
COc1ccccc1C(=O)NC(=S)Nc1ccc(N2CCCC2)cc1,1,-2.0,-3,-18,6%,
CCN(CCNC(=O)c1cccc(N2CCCC2=O)c1)c1ccccc1,-4,.,-7,17,-10%,
O=C(CNS(=O)(=O)c1cccc(Br)c1)NCC1CCCCC1,-6,1.5,.,.,.,
Cc1cccc(N(C(=O)c2ccc(CN3CCOCC3)o2)C(C(=O)NC2CCCCC2)c2ccc(F)cc2)c1 (stereo not drawn),7,-1.9,-4,3,-4%,
COc1cccc(CNC(=O)C2CCN(S(=O)(=O)c3ccc(C)cc3)CC2)c1,0,1.5,.,.,.,
C=CCNC(=S)N1CCN(CCN=Cc2c(C)[nH]n(-c3ccc([N+](=O)[O-])cc3)c2=O)CC1,1,-0.8,-8,.,2%,
O=C(Oc1cccc2cccnc12)c1cccc(N2C(=O)C3C4CCC(C4)C3C2=O)c1 (stereo not drawn),100,-3.0,12,-10,?,
COc1ccc(/C=N/NC(=O)c2cccnc2)cc1CN1CCc2cc(OC)c(OC)cc2C1C (stereo not drawn),-6,0.5,-6,.,1%,

# Assay outcomes from PubChem BioAssay.
